# Screens deposited in PubChem BioAssay by National Center for Advancing Translational Sciences (NCATS).
# SARS PLpro yeast = inhibitors of SARS-CoV papain-like protease in yeast; S. cerevisiae expressing SARS-CoV PLpro, growth rescue; control for the full effect not named in the record; Potency, µM (titrated, usually from 32.9 µM), without a hit: top-dose activity, positive = growth rescue; 330,000 tested, 0.19% active; further: 0% is about no effect; nearly all actives have a fitted effect of over 55% in size; growth read by luminescence after 48 h
# Marburg entry inh = blocks Marburg virus binding to or entry into cells. 300,000 tested, 1.8% active. AID 540276. Potency, µM (doses to about 37.8 µM), inactives show at the highest dose activity change, negative = inhibition, usual class: inhibitors. Marburg virus pseudotyped entry inhibition, cell reporter; control for the full effect not named in the record; about a third of the inactives were read at about 46 µM; active = well fitted inhibition curve with a large enough effect; inconclusive = small, poorly fitted or top-dose-only effect, or effect the other way; inactive = flat fitted curve, though single readings scatter; tested in HEK293 cells; about a fifth of its hits are not listed in these tables; further: on the % scale 0 is the no-effect control and ±100 the full control effect; luciferase read-out
# 2A StopGo = FMDV 2A StopGo reporter, luciferase signal; human cells with a luciferase reporter of 2A StopGo recoding; control for the full effect not named in the record; AID 1159524; Potency, µM (titrated, usually from 57.9 µM), without a hit: at the highest dose signal change, negative = less light; 410,000 tested, 1.2% active; active = well fitted falling curve with a large enough effect; inconclusive = small, poorly fitted or top-dose-only effect; inactive = no such curve, though single readings can be large or run the other way; tested in HEK293T cells; further: on the % scale 0 is the no-effect control and ±100 the full control effect; nearly all actives have a fitted effect of over 45% in size; luciferase light after 4 h
# Cruzain inh noDet = inhibitors of Trypanosoma cruzi cruzain without detergent; P25779; 200,000 tested, 2.3% active; Potency, µM, for the others: max response, negative = inhibition, most hits filed as inhibitors; purified cruzain, Z-FR-AMC fluorescence, no detergent; active means well fitted curve in the direction sought with a large enough effect; inconclusive means small, poorly fitted or top-dose-only effect, or another doubt; inactive means no such curve, though single readings can be large; an effect the other way counts as inactive or inconclusive;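 further: plate controls were enzyme without inhibitor for no effect and buffer without enzyme for full effect; nearly all actives have a fitted effect of over 40% in size; top concentration of the series not given in the record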
# Target sequence (P25779 123-467 limits assumed): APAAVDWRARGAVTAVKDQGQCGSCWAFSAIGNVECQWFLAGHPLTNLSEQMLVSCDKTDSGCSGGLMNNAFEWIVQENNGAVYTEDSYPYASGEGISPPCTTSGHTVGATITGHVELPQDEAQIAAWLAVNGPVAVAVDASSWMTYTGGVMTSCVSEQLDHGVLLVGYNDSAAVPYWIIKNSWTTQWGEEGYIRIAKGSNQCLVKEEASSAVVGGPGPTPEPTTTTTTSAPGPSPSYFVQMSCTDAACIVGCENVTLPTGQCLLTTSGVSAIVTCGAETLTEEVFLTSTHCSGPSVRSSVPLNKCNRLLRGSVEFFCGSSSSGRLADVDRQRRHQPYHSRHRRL
#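 Detergent-free condition (0.00005% Triton X-100) in acetate buffer pH 5.5 with DTT. 1.5 nM enzyme and compound were pre-mixed 15 min, then 2 uM Z-FR-AMC substrate added; reaction progress from fluorescence change between first and third reads (60 s).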
# LASV entry inh = blocks Lassa virus binding to or entry into cells. Lassa virus pseudotype entry inhibition, cell reporter; control for the full effect not named in the record. Potency, µM (top dose mostly 37.9 µM), inactives show at the highest dose activity change, negative = inhibition, usual class: inhibitors. 300,000 tested, 1.2% active; active means well fitted inhibition curve with a large enough effect; inconclusive means small, poorly fitted or top-dose-only effect, or effect the other way; inactive means flat fitted curve, though single readings scatter; tested in HEK293 cells; further: on the % scale 0 is the no-effect control and ±100 the full control effect; nearly all actives have a fitted effect of over 50% in size; luciferase read-out
# NS1 inh = influenza NS1 inhibition. S. cerevisiae slowed by influenza A NS1, growth recovery by OD600. Potency, µM (doses to about 46.1 µM), for inactives: at the highest dose activity, positive = more growth. 270,000 tested, 0.4% active. AID 2326; further: actives are rising curves; nearly all actives have a fitted effect of over 50% in size
#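 S. cerevisiae expressing influenza A NS1, grown in glucose, washed, then diluted 1:100 into pH 6.0 -URA galactose medium with 23 nl compound. Growth recovery read as OD600; NS1-free strain serves as control.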
# Cruzain inh Det = cruzain (T. cruzi) inhibition with detergent; P25779; Potency, µM, for inactives: max response, negative = inhibition, hits mostly inhibitors; purified cruzain, Z-FR-AMC fluorescence, 0.01% Triton; 200,000 tested, 0.43% active; active means well fitted curve in the direction sought with a large enough effect; inconclusive means small, poorly fitted or top-dose-only effect, or another doubt; inactive means no such curve, though single readings can be large; an effect the other way counts as inactive or inconclusive;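 further: plate controls were neutral wells for no effect and buffer without enzyme for full effect; nearly all actives have a fitted effect of over 40% in size; top concentration of the series not given in the record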
#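 Detergent-containing run (0.01% Triton X-100) in acetate buffer pH 5.5 with 5 mM DTT: enzyme at 1.5 nM final, 15 min compound preincubation at room temperature, then 2 uM Z-FR-AMC substrate. Activity taken as 60 s fluorescence increase at 360/450 nm.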
# RE007 growth inh = less growth of the S. pombe RE007 Vpr strain; S. pombe RE007 Vpr strain, BacTiter-Glo ATP luminescence, 24 h; control for the full effect not named in the record; AID 651644; 360,000 tested, 0.21% active; Potency, µM (series often up to 92.2 µM), without a hit: at the top dose activity change, negative = less growth; active = well fitted falling curve with a large enough effect; inconclusive = small, poorly fitted or top-dose-only effect; inactive = no such curve, though single readings can be large or run the other way;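 further: on the % scale 0 is the no-effect control and ±100 the full control effect; nearly all actives have a fitted effect of over 50% in size; the assay follows cell death caused by Vpr and the record does not say whether a fall means rescue or toxicity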
#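 Fission yeast RE007 carrying one integrated HIV-1 vpr copy, seeded at OD 0.01 in PMG+AL medium with 23 nL pinned compound. Grown 24 h at 30 degrees; viability read by BacTiter-Glo luminescence after 5 min.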
# Numbers without * were called inactive; u = inconclusive; x = not tested or not shown; & = joins results of further samples; [ ] = remark or other dose. Unless noted, the call rests on the fitted dose curve; in most records, active means well fitted rising curve with a large enough effect; inconclusive means small, poorly fitted or top-dose-only effect; inactive means no such curve, though single readings can be large or run the other way. Potency means the concentration at half of the fitted maximal effect.
SMILES,SARS PLpro yeast,Marburg entry inh,2A StopGo,Cruzain inh noDet,LASV entry inh,NS1 inh,Cruzain inh Det,RE007 growth inh
CC(C)c1ccc(CNC(=O)C2CC(=O)N(C3CCCCC3)C2)cc1 (stereo not drawn),-8%,-8%,-15%,x,0%,8%,x,0%
COc1cc(Cl)c(S(=O)(=O)NCCc2c(C)[nH]c3c(C)cccc23)cc1Cl,x,-20%[46.1 µM],9%,-5%,u,x,-16%,x
COc1ccc(C(=O)CCC(=O)Nc2cc(C)ccc2C)cc1,x,x,-5%,-9%,18%[46.1 µM],x,-3.1%,x
CCCn1c(N)c(N(CCOC)C(=O)c2ccc(C#N)cc2)c(=O)[nH]c1=O,-1%,17%[46.1 µM],2%,x,4%[46.1 µM],7%,x,1%
O=C1C=C(O)CC(c2ccc(Cl)c(Cl)c2)C1 (stereo not drawn),-2%,2%,-9%,-10%,3%,4%,0.9%,-7%
COc1ccccc1NC(=O)NC1(C(=O)NCC2CCCO2)CCCCC1 (stereo not drawn),0%,6%[46.1 µM],-2%,x,-9%[46.1 µM],-8%,x,-6%
Cc1ccc(-c2nc(C)c(CCNC(=O)c3ccco3)s2)cc1,x,x,46%[activator],-8%,6%[46.1 µM],x,-13%,x
CCN(CC)S(=O)(=O)c1ccc(NC(=O)c2ccc(Cl)nc2)cc1,0%,0%[46.1 µM],-27%,x,8%,-8%,x,3%
Cc1cc(Cl)ccc1C(=O)C1CCCN(C(=O)c2ccsc2)C1 (stereo not drawn),x,-2%,u,x,-4%,x,x,11%
Cc1cc(C(=O)Nc2cccc(/C=C/C(=O)O)c2)c(C)o1,2%,u,12%,-7%,-14%[14.3 µM],2%,5.4%,-8%
CCCCNC(=O)c1c(-c2ccccc2)c(-c2ccccc2)nn(C)c1=O,x,19%[46.1 µM],-22%,6%,x,x,-1.4%,x
Cc1ccc(C(C)(c2ccc(N)cc2)c2ccc(N)cc2)cc1,x,7%[46.1 µM],-5%,x,-20%[46.1 µM],x,x,0%
COCCn1c(-c2ccccc2)cc(C(=O)O)c1C,x,2%,-6%,x,5%,x,x,-9%
COc1ccc(C(=O)Nc2cccc(OC(=O)c3ccc(C)c(C)c3)c2)cc1,0%,u,-14%,-17%,u,21%,-5.8%,8%
COc1ccc(OCCN2C(=O)c3ccccc3C2=O)c([N+](=O)[O-])c1,0%,10%[46.1 µM],28%,x,15%[46.1 µM],-4%,x,4%
COc1ccc(NC(=O)c2ccccc2NC(=O)c2ccccc2C(=O)O)c(OC)c1,1%,x,10%,x,x,-14%,x,-15%
Cc1cc(C)n(/N=C/c2ccc(O)cc2)c(=O)c1C#N,0%,2%[46.1 µM],5%,x,-7%,4%,x,-7%
COc1ccccc1C(=O)N1CCN(c2cccc(C(F)(F)F)c2)CC1,-4%,u,0%,29%,u,-47%,-4.4%,-23%
Cc1ccccc1OCC(=O)N1CCCc2ccccc21,-1%,3%[46.1 µM],46%[activator],0%,-1%,-30%,-1.6%,6%
COc1ccc(NC(=O)CCCC2CCCCC2)c(OC)c1,-6%,x,10%,x,x,-23%,x,7%
CC(OCCN1CCCC1)(c1ccc(F)cc1)c1ccc(F)cc1,6%,u,u,0%,2µM*,8%,1.1%,-8%
O=C(O)COCC(=O)Nc1ccc2c(c1)ncn2CCc1ccccc1,0%,17%,6%,x,11%,0%,x,-5%
O=C(COc1ccc(S(=O)(=O)N2CCCCC2)cc1)N1CCN(Cc2ccccc2)CC1,0%,u,-25%,3%,u,-14%,-1.1%,-9%
O=C(NCC1(c2ccccc2)CCCC1)C(=O)NCC1(c2ccccc2)CCCC1,20%,u,-3%,-22%,15%,3%,-1.0%,-3%
Cc1ccc(NC(=S)NNc2ccc([N+](=O)[O-])cc2S(=O)(=O)Nc2ccccc2C(=O)O)cc1C,1%,-21%,-11%,23%,13%,13µM*,u,x
# Next records
SMILES,SARS PLpro yeast,Marburg entry inh,2A StopGo,Cruzain inh noDet,LASV entry inh,NS1 inh,Cruzain inh Det,RE007 growth inh
O=C(NNC(=O)C1CC1c1ccccc1)c1ccccc1[N+](=O)[O-] (stereo not drawn),9%,8%,-7%,10%,-11%,11%,-0.9%,-20%
c1ccc(-c2nnc(Cn3c4ccccc4c4nc5ccccc5nc43)o2)cc1,x,9%&9%,-1%,x,10%,26%,x,6%
CC(=Nc1ccccc1)Nc1ccccc1,-9%,u,13%,-16%,8%,2%,1.5%,6%
Cc1nnc2c(NCCc3ccccc3)nc3ccccc3n12,0%,x,-9%,x,x,-2%,x,-13%
CCCCCC/C=C/c1ccc(OC)c([C@H]2[C@H]3C=CC[C@@H](C)[C@@H]3C(=O)N2Cc2ccccc2)c1,0%,x,u,x,x,-1%,x,7%
CCOC(=O)C1=C(C)NC(=S)NC1c1ccc(OCC(=O)N2CCCCC2)cc1 (stereo not drawn),3%,-2%&-2%[46.1 µM],-10%,x,-12%[46.1 µM],6%,x,-2%
O=C(NC1=NCCS1)c1ccccc1OCc1ccc(F)cc1,-3%,4%[46.1 µM],-16%,x,9%,x,x,1%
Cc1nc2ccccc2c(=O)n1-c1ccc(Cl)cc1[N+](=O)[O-],-1%,x,4%,x,x,3%,x,9%
O=C(NCCN1C(=O)CSC1=O)c1ccccc1,9%,9%,x,-8%,-1%,1%,1.0%,-9%
Cc1cc(NC(=O)CSc2nc3sc4c(c3c(=O)n2C)CCCC4)no1,5%,-9%,-5%,5%,3%,1%,3.6%,-6%
COC(=O)[C@H](Cc1ccccc1)NC(=O)N1CC(C)OC(C)C1 (stereo partly drawn),-1%,4%,-6%,3%,5%,5%,0.4%,3%
CC(C)OCCCNC(=O)C(=O)NCCCOC(C)C,4%,5%,0%,6%,22%,20%,3.3%,-7%
CN(CC(=O)Nc1cccc(F)c1)C(=O)c1ccccc1OCC(=O)Nc1cccc(C(F)(F)F)c1,-3%,-6%,u,x,0%,x,x,1%
Cn1c(Cl)c(C(=O)Nc2ccccc2)c2ccccc21,-9%,-2%,8%,-1%,-9%,-7%,6.2%,-3%
COc1cccc(OCc2nc(-c3ccc(Br)o3)no2)c1,-12%,-19%[46.1 µM],15%,x,3%,x,x,22%
COc1ccc(NC(=O)Cc2nnc(SCC(=O)NC3CCCC3)n2C)cc1,-3%,-3%[46.1 µM],3%,x,14%[46.1 µM],3%,x,-3%
Cc1cc2ccccc2c(=O)n1CC(=O)Nc1ccc2c(c1)OCO2,16%,u,-8%,-1%,7%,1%,-2.9%,-13%
O=C(O)/C=C\C(=O)NNC(=O)c1cc(-c2ccccc2)n[nH]1,-2%,-9%,-4%,x,6%,4%,x,21%
CCOC(=O)C(NC(=O)c1cccnc1)(Nc1cccc(C)n1)C(F)(F)F (stereo not drawn),4%,5%,-19%,3%,-12%,-2%,2.1%,4%
O=C(CN1CCN(Cc2ccccc2Cl)C1=O)NCc1ccccc1Cl,x,-13%[46.1 µM],34%[activator],-4%,10%[46.1 µM],x,-5.6%,x
COc1ccccc1N/N=C/c1c(CO)cnc(C)c1O,3%,u,x,8%,15%,3%,-14%,14%
CC(Cc1ccccc1)NC(=O)/C=C/c1ccc([N+](=O)[O-])cc1 (stereo not drawn),19%,9%,5%,-21%,-14%,5%,-11%,u
Cc1cc(C)c2c(=O)c3c(oc2c1)C(=O)N(CCCOC(C)C)C3c1ccccc1F (stereo not drawn),x,1%[46.1 µM],-4%,u,-5%[46.1 µM],x,-0.4%,x
CCc1ccc(OCCCC(=O)O)c(Br)c1,-17%,13%,x,15%,u,-132%,4.1%,-20%
O=C(Nc1ccccc1C(=O)NCc1ccco1)NC1CCCCC1,-4%,u,27%,-6%,-1%,1%,-5.1%,5%
# Further structures
SMILES,SARS PLpro yeast,Marburg entry inh,2A StopGo,Cruzain inh noDet,LASV entry inh,NS1 inh,Cruzain inh Det,RE007 growth inh
Cc1ccc(S(=O)(=O)Oc2ccc(/C=N/NC(=O)c3nn(C)cc3[N+](=O)[O-])cc2)cc1,12%,-16%,5%,u,u,5%,-11%,-4%
CCSc1nnc(NC(=O)CN(C)S(=O)(=O)c2ccc(F)cc2)s1,-1%,9%,x,-10%,17%,-4%,-2.3%,11%
CC(C)(C)C(=O)CC(=O)Nc1ccc(Cl)c(N)c1,1%,u,x,-3%,0%,-16%,2.8%,-6%
CC(C)(C)NC(=O)C(=O)NNC(=O)C12CC3CC(CC(C3)C1)C2,-1%,-6%[46.1 µM],-25%,-8%,-21%,5%,1.0%,-6%
Cc1cc(N=Cc2c(O)n(-c3ccc(C)c(C)c3)c(=O)c3ccccc23)no1,-13%,4%,x,-4%,-15%,14%,-4.5%,x
CCN(CC)Cc1cc(C(=O)O)c(-c2ccccc2)o1,2%,x,-16%,x,x,2%,x,10%
Cc1c(N2CCCC2)cc2c(c1N)C(C)(C)CC2(C)C,-2%,-9%,-16%,x,u,-1%,x,13%
COc1cc(CNCCO)cc(Br)c1OCc1ccccc1,12%,x,-15%,x,x,-1%,x,-12%
CC(=O)C1=C(O)C(=O)N(Cc2ccccc2)C1c1ccc(Br)cc1 (stereo not drawn),0%,18%[46.1 µM],0%,x,5%[46.1 µM],7%,x,14%
CCOc1ccc(C2c3[nH]c4ccccc4c3CCN2C(=O)Cc2cccc(OCC)c2OCC)cc1 (stereo not drawn),x,x,-5%,u,u,x,0.5%,x
COc1ccc(CNC(=O)C2CC(=O)N(c3ccc(OCC(=O)N4CCCCC4)cc3)C2)cc1 (stereo not drawn),0%,u,-5%,9%,3%,-4%,4.7%,30%
COc1ccc(C(=O)Nc2ccc(C(=O)Nc3nccs3)cc2)cc1[N+](=O)[O-],u,2%,-13%,7%,-3%,-1%,2.9%,9%
CC(C)c1ccc2oc(-c3ccc(Cl)c(NC(=O)c4cccs4)c3)nc2c1,x,-3%[46.1 µM],24%,-3%,1%[46.1 µM],x,-2.1%,x
COc1cccc(CN(C)C(=O)c2cccnc2SC)c1OC,-3%,x,-26%,x,x,12%,x,-4%
